RanGTP-Impb inh = inhibitors of RanGTP-importin-beta interaction, primary screen, biochemical, FRET, CFP-Ran, YFP-importin-beta, homogeneous; cell-free CFP-Ran/YFP-importin-beta FRET ratio; inhibition, % (test concentration not listed); actives 1.1% (n = 300,000); AID 2216;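 active = most replicates above 15%; inconclusive = exactly half above 15%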;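 also: 0% = DMSO wells and 100% = Ran loaded with GDP instead of GTP; wells of about 40 µL received 100 nL stock; the first replicate is given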
ALR inh = human ALR oxidase inhibition via reduced H2O2; purified ALR, DTT oxidation, H2O2 HRP-luminol luminescence; P55789; AID 485317; inhibition, % (test concentration not listed); actives 3.8% (n = 290,000);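 active = mean and each replicate at 75% or more; inconclusive = only one of the two met; inactive = neither met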;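 also: stock transfer was 7.5 nL into about 7.5 µL; 0% = neutral wells and 100% = wells with inactivated enzyme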
Target sequence (P55789 whole entry, looked up): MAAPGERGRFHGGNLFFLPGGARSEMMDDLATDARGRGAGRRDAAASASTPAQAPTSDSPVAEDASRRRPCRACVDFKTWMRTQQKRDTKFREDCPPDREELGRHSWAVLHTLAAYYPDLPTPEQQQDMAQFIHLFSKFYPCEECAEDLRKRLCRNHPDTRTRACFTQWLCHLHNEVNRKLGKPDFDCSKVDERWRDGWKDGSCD
Ecoli rRNA inh = inhibits bacterial ribosomal RNA function over humanized ribosomes; GFP signal change (wild-type ribosome), % (concentration not given with the values); E. coli WT GFP vs humanized-ribosome RFP mutants, fluorescence, 24 h; stronger effect = lower value; DMSO median 0, no signal -100; AID 720706; actives 1.6% (n = 350,000);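 active = significant combined selectivity score with lowered wild-type GFP, culture density cut under 30%, mutant RFP and density less affected; inactive = any of these conditions unmet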; also: one replicate is shown; some compounds called inactive have numbers as strong as hits
Beta cell apopt = blocks beta cell apoptosis. protection from apoptosis, % (no concentration beside the values). actives 0.8% (n = 300,000). INS-1E cytokine-induced death, ATP luminescence, 48 h; percent of positive-control rescue, neutral wells zero. AID 435005;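 active = all replicates at 75% or more, or half of them and the mean; inconclusive = half reach 75% but not the mean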;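 also: 0% = cytokine-treated negative control wells and 100% = positive control rescue; higher means more ATP so stronger rescue from cytokine killing; wells of about 40 µL received 100 nL stock; the first replicate is given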
Calb FLC = C. albicans growth modulation with fluconazole. C. albicans CaCi-2 (fluconazole-resistant clinical isolate) + fluconazole, Alamar Blue growth, 48 h. growth inhibition, % (no concentration beside the values). actives 0.57% (n = 300,000);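 active = most replicates above 75%; inconclusive = exactly half above 75%; inactive = most below 75%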;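 also: all wells also contain fluconazole at 8 µg/ml as a sub-toxic cotreatment; 0% = median of DMSO wells and 100% = median of geldanamycin control wells; wells of about 8 µL received 7.5 nL stock; the first replicate is given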
FGF22 binding = shifts melting point of recombinant human FGF22; actives 1.5% (n = 340,000); AID 651658; recombinant FGF22 thermal shift, SYPRO orange fluorescence; percent of sucrose octasulfate shift, DMSO zero; calls only at 9.99 µM;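 active = melting point raised past a set limit in the mean and every replicate; inconclusive = no clear call; three in four hits are not shown here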
Target sequence (Q9HCT0 whole entry, looked up): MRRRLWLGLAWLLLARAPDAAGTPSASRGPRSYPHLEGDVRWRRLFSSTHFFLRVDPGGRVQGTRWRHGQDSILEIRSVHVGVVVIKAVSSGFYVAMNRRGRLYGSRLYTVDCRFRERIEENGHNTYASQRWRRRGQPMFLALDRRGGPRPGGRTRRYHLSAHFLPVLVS
MLL AF4-AF9 inh = MLL-AF4/AF9 protein interaction inhibition; actives 0.47% (n = 350,000); P42568; inhibition, % at 10 µM; AlphaScreen, biotin-AF4 peptide binding to FLAG-AF9; AID 651704;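 active = every replicate reaching a set inhibition limit, whatever the replicate mean, cut at about 25% in these data; inconclusive = mean inhibition reaches that limit but some replicates miss it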;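 also: 0% = plate neutral control median and 100% = total signal loss; the record names both 10 and 1 µM as test concentration; the first replicate is given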
Target sequence (P42568 whole entry, looked up): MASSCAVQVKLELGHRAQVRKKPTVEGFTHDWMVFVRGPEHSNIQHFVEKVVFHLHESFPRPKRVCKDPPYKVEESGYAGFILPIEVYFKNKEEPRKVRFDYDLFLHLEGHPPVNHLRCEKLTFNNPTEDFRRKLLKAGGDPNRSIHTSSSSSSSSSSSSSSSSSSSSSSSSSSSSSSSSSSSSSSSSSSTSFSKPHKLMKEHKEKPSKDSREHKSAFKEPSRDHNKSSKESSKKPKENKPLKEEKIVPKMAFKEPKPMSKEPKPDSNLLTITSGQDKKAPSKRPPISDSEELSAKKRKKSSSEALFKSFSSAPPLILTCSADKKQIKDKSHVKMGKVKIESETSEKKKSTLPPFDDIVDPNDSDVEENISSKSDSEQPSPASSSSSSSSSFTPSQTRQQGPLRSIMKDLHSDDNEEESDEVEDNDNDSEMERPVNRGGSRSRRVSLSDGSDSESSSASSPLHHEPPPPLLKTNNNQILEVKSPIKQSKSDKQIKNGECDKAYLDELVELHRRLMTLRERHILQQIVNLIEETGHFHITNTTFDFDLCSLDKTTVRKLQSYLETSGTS
T cruzi repl = T. cruzi replication inhibition. T. cruzi beta-gal in NIH3T3, luminescence, 90 h. inhibition, % (test concentration not listed). actives 1.4% (n = 300,000). AID 1885;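 active = mean inhibition across valid replicates above about 55%, limit read from the data; inconclusive = mean below that limit but half or more replicates reach it; inactive = mean below it, under half of replicates reach it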;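 also: signal also drops with host cell toxicity which is not excluded here; 0% = plate median of DMSO wells and 100% = zero luminescence signal; higher percent means less beta-gal luminescence so fewer parasites; stock transfer was 50 nL into about 50 µL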
Ecoli rRNA inh OD600 = second read-out of Ecoli rRNA inh, no call of its own (marks repeat the call); OD600 change, %; measured here: OD600 growth;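 optical density of the mix in the first replicate; 0 = DMSO median and -100 = no signal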
Ecoli rRNA inh RFP = further read-out of Ecoli rRNA inh, marked with its call; RFP signal change, %; measured here: RFP humanized mutant strains;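 first replicate; 0 = DMSO median and -100 = no signal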
* marks the source's active call; other numbers are inactive results; i = inactive; u = inconclusive; x = no result given.

Compound	RanGTP-Impb inh	ALR inh	Ecoli rRNA inh	Ecoli rRNA inh OD600	Ecoli rRNA inh RFP	Beta cell apopt	Calb FLC	FGF22 binding	MLL AF4-AF9 inh	T cruzi repl
Cc1cc(C)nc(-n2ncc3c2CC(c2ccccc2C)CC3=O)n1 (stereo not drawn)	3.1	0.5	7.1	7.1	-0.4	-1.5	12.0	i	1.3	-0.2
COC(=O)C(C)NC(=O)C1CCCN1S(=O)(=O)c1cc(C)c(Cl)cc1C (stereo not drawn)	1.3	-1.9	x	x	x	-3.1	-2.8	x	x	-10.1
O=C(O)CCCCCNc1ccc2nsnc2c1[N+](=O)[O-]	-0.1	-27.8	x	x	x	-5.2	-14.1	x	x	4.2
CNc1nc(C)c(C(=O)c2ccc(Cl)cc2)s1	3.2	-5.7	x	x	x	-6.5	-0.4	x	x	-5.1
COc1cc(NC(=O)c2cccc(Cl)c2)ccc1NC(=O)c1cccs1	x	0.9	-0.9	10.4	0.7	-2.8	-19.7	i	0.1	x
CCOC(=O)COc1ccc2c(c1)C(=O)CC(C)(c1cccnc1)O2 (stereo not drawn)	6.3	3.0	-5.9	-2.8	-3.0	1.5	-0.4	i	5.6	0.0
COc1ccc(C=C(C#N)C#N)c(CSc2ccccn2)c1	4.0	6.1	-8.5	-4.0	3.6	x	-8.6	i	1.1	-34.1
COc1ccc(/C(C)=N/NC(=O)C2C3CCCCC32)c(OC)c1 (stereo not drawn)	-0.8	-2.4	-5.6	3.3	-3.4	-0.3	-6.0	i	-8.5	20.2
COc1ccccc1CC(=O)Nc1nc(-c2ccc(F)c(F)c2)cs1	0.4	-2.8	-22.5	-48.8	14.3	6.4	-16.4	i	-1.1	18.4
CC1CC(C)CN(CCCNC(=O)c2ccc3c(c2)NC(=O)CS3)C1 (stereo not drawn)	-1.4	x	7.4	16.7	-0.8	-6.3	-11.9	i	-0.3	5.6
CC(C)(C)c1nc(Sc2ncccc2[N+](=O)[O-])n[nH]1	-3.3	0.1	-1.1	7.8	-0.8	x	-5.9	i	4.2	-23.7
COC(=O)c1sccc1NC(=O)CSCC(=O)O	5.5	-15.9	16.0	6.1	2.8	0.8	-3.9	i	-0.6	-7.1
Cc1cccc(NC(=O)C2CCN(S(=O)(=O)c3cccc4cccnc34)CC2)n1	-2.2	27.2	0.2	-1.3	2.6	-13.8	-0.9	i	2.4	-7.2
CC(=O)c1sc(Nc2cccc3ccccc23)nc1C	-5.6	-10.0	2.5	3.9	-1.5	8.9	4.9	i	3.8	x
CCC(C)N1CCN(S(=O)(=O)c2ccc3ccccc3c2)CC1 (stereo not drawn)	-3.7	-1.3	0.1	1.5	4.0	-3.2	-2.8	i	0.3	2.5
Cc1sc(NC(=O)c2ccccc2)c(C(c2ccccn2)N2CCN(CCO)CC2)c1C (stereo not drawn)	-1.6	20.5	x	x	x	x	-16.4	x	x	10.4
O=c1c2c(nc3cc(-c4cccc(F)c4)[nH]n13)CCC2	0.6	4.8	22.1	15.7	2.9	6.5	11.7	i	-2.0	12.0
COc1ccc(-c2coc3cc(O[C@@H]4O[C@H](CO)[C@@H](O)[C@H](O)[C@H]4O)c(OC)cc3c2=O)cc1	x	-0.2	-3.4	5.1	-4.5	6.6	x	i	-0.2	x
Cc1noc(C)c1S(=O)(=O)N1CCCC(C(=O)N2CCN(C3CCCCC3)CC2)C1 (stereo not drawn)	6.2	-15.1	3.9	12.2	-0.1	-2.9	0.1	i	-1.2	15.7
O=C(Nc1ccc(N2CCCCC2)cc1)c1cccnc1Cl	-2.8	x	x	x	x	-0.8	-5.4	x	x	40.7
FC(F)(F)c1cccc(Cc2noc(CN3CCCC(CN4CCCC4)C3)n2)c1 (stereo not drawn)	-3.3	x	10.9	8.6	9.7	2.1	-29.3	i	12.8	48.2
Cc1cc(F)c(F)cc1C(=O)N1CCCC1	1.2	-5.3	16.2	10.6	2.0	2.1	-5.8	x	-2.4	-10.2
COc1ccc(CN2CCNC(=O)C2CC(=O)NCc2cccc(C)n2)c(OC)c1 (stereo not drawn)	5.5	-1.8	7.3	2.7	-1.6	-10.0	0.5	i	-1.1	-11.5
COc1ccc(CNC(=O)NC(C)(C)c2cccc(C(C)(C)NC(=O)NCc3ccc(OC)cc3)c2)cc1	-0.4	-2.0	x	x	x	-5.7	8.5	x	x	-6.9
O=c1cc(-c2cccs2)oc2ccc(Cl)cc12	-2.5	-1.9	x	x	x	-3.0	8.0	x	x	4.6
O=C(CC(NC(=O)C(F)(F)F)c1ccccc1)Nc1nnc(CCc2ccccc2)s1 (stereo not drawn)	-0.1	-0.5	8.5	6.0	2.1	0.9	-10.4	i	-1.1	-12.5
Cc1ccc(CN2CCC(n3nccc3NC(=O)c3ccc4c(c3)OCO4)CC2)o1	3.2	4.6	2.4	26.3	16.0	-1.4	-2.0	i	4.6	14.5
Cc1ccc(NC(=O)COC(=O)Cn2cnc3c2c(=O)n(C)c(=O)n3C)cc1Cl	5.2	0.0	12.5	10.4	2.2	-7.8	5.7	i	0.6	32.1
O=C(NCc1ccccc1)c1cc(-c2ccco2)on1	-0.8	0.5	6.8	9.4	2.9	0.7	-19.3	i	-0.8	0.0
CC(C)(C)C(=O)N1CCN(c2c(Cl)cccc2[N+](=O)[O-])CC1	u	9.6	x	x	x	-2.8	-4.1	x	x	7.7
COc1ccc(CNC(=O)CSc2nc(-c3ccccc3)cc(-c3cccs3)c2C#N)cc1	3.4	-2.9	x	x	x	19.0	u	x	x	-4.6
CCOC(=O)CSc1nc2ccccc2n1CC(=O)N(C(C)C)C(C)C	-1.6	-11.5	16.2	3.1	-4.5	-0.3	-3.2	i	6.9	-4.1
Cc1cc(OCC(=O)NC2CC(C)(C)NC(C)(C)C2)c2c(C)c(C)c(=O)oc2c1	2.0	4.0	-0.1	7.1	0.5	-1.9	-5.3	i	0.8	22.0
CSc1ccccc1NC(=O)c1cnc2scc(C)n2c1=O	-1.7	3.2	2.0	-6.4	4.8	-2.3	4.9	i	-7.9	8.5
CCCCn1c(SCC(=O)N2CCCCC2C)nc2cc(S(N)(=O)=O)ccc21 (stereo not drawn)	2.8	19.3	x	x	x	0.2	1.8	x	x	13.8
CN1CCN(CCOCCOc2c(Cl)cc(Cl)cc2Cl)CC1	4.1	1.6	-0.3	2.3	-2.4	-6.6	-24.3	x	0.7	49.4
CCOC(=O)c1ccc(NC(=O)C(C)N2C(=O)c3ccccc3C2=O)cc1 (stereo not drawn)	0.0	-4.6	6.5	-17.7	1.2	3.1	4.3	i	10.0	-12.7
CCCCOc1ccc(/C=N/NC(=O)C2CCCNC2=O)cc1 (stereo not drawn)	0.7	1.9	2.3	9.4	-1.2	x	13.1	i	-1.3	2.7
COc1ccc(OC)c(S(=O)(=O)N(C)CC(=O)N2CCCCC2)c1	2.0	-0.7	11.4	9.8	0.3	1.0	-2.9	i	2.0	-8.7
Cc1ccccc1N(CC(=O)NCC1CCCO1)C(=O)C1(C)CC(=O)N=C2C=CC=CN21 (stereo not drawn)	6.8	-17.1	x	x	x	-4.0	-1.5	x	x	-18.8
CCN(CC)C(=O)CSc1ncnc2c1nnn2-c1ccc(OC)cc1	-3.6	-10.2	x	x	x	-4.6	-9.5	x	x	6.1
O=C(COc1ccccc1C(=O)Nc1ccccc1)NCCc1ccccc1	-2.2	-26.0	5.8	4.6	-4.8	1.3	5.1	i	-2.1	13.2
CC(C)(C)NC(=O)c1cc([N+](=O)[O-])ccc1N1CCCCC1	1.0	3.4	x	x	x	-6.7	34.3	x	x	3.8
CN(Cc1ccco1)c1ncnc2ccc(-c3ccoc3)cc12	x	4.3	13.5	10.9	-4.6	-1.4	x	i	-5.5	x
COc1ccc(OC)c(N2C(=O)CC(C(C)c3ccccc3)C2=O)c1 (stereo not drawn)	0.2	-2.3	x	x	x	-7.5	4.0	x	x	8.2
O=c1cc(O)c2c(=O)n(Cc3ccccc3)c3ccccc3c2o1	3.7	x	8.6	8.0	11.2	5.6	u	i	-3.3	12.9
COc1ccc([C@H]2CC(=O)C=C(c3ccc(Cl)c(C(F)(F)F)c3)C2)cc1OC	x	3.7	-13.0	-16.7	-4.1	-0.9	x	i	4.3	x
COc1ccccc1CNC(=O)c1ccc(-c2ccccc2Cl)o1	0.5	-1.1	-34.5	-47.2	-2.3	13.0	6.0	i	-13.0	-1.6
CCOc1ccc(NC(=O)C2C3C=CC4(CN(C(C(=O)OC)C(C)C)C(=O)C24)O3)cc1 (stereo not drawn)	-2.7	-7.7	4.7	10.4	-4.2	-5.8	-0.3	i	-1.6	-6.1
O=C(NC(=S)NC1CCCCC1)c1ccc(Cl)cc1	0.4	1.5	-54.4	-81.0	-16.8	7.7	-24.9	i	5.1	15.7
O=C1CN(S(=O)(=O)c2ccccc2)CC(=O)N1CCc1ccccc1	2.8	x	x	x	x	-1.9	39.6	x	x	-5.4
Cc1ccc(-c2noc(CCC(=O)N3CCCc4ccccc43)n2)cc1	-2.2	x	x	x	x	0.4	-2.4	x	x	28.7
CC(Sc1nc(-c2ccccc2)cc(C(F)(F)F)n1)C(=O)Nc1sc2c(c1C#N)CCC2 (stereo not drawn)	-2.3	1.6	-1.0	-2.9	-9.8	3.2	11.4	i	3.6	55.6*
O=C1NC(Cc2ccccc2)c2nc3ccccc3c(=O)n2-c2cc(Cl)ccc21 (stereo not drawn)	x	1.4	-2.1	4.0	4.1	-5.2	x	i	1.0	x
CCN(CC)S(=O)(=O)c1cccc(-c2nnc(-c3ccc(C)cc3)o2)c1	-6.2	15.9	x	x	x	-0.8	7.0	x	x	29.2
O=C(CSc1nc2ccccc2o1)NC1CCS(=O)(=O)C1 (stereo not drawn)	x	-9.6	4.6	6.6	-0.6	-5.7	x	i	-1.9	x
COC(=O)C1CCN(C(=O)COC(=O)C2CCN(S(=O)(=O)c3ccc(C)c(C)c3)CC2)CC1	5.1	-0.5	1.0	6.9	-2.2	-4.0	6.0	i	-0.9	-9.3
O=C1CCc2cc(S(=O)(=O)Nc3ccc(F)cc3)ccc2N1	x	0.7	1.7	-0.7	1.5	0.5	x	i	0.4	x
O=C(Cn1ncc2c([nH]c3ccccc32)c1=O)NCC1CCN(Cc2ccc(F)cc2)CC1	5.1	0.5	2.3	-0.5	-2.8	-0.7	-21.9	i	-1.8	1.6

From PubChem

These rows are one share of the data (hit frequency here may not be typical).
